# Screening data: PubChem BioAssay, several laboratories
# Calb FLC: affects C. albicans growth with fluconazole | growth inhibition, % (concentration not given with the values) | C. albicans CaCi-2 (fluconazole-resistant clinical isolate) + fluconazole, Alamar Blue growth, 48 h | AID 1979 | hit rate 0.57% among 300,000;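 active means most replicates above 75%; inconclusive means exactly half above 75%; inactive means most below 75%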;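 further: all wells also contain fluconazole at 8 µg/ml as a sub-toxic cotreatment; 0% = median of DMSO wells and 100% = median of geldanamycin control wells; wells of about 8 µL received 7.5 nL stock; the first replicate is given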
# A1 inh: inhibitors of the anti-apoptotic protein A1, read as caspase activation; caspase activation, % (test concentration not listed); hit rate 0.066% among 330,000; MEF A1-2A-BIM cells, Caspase-Glo 3/7 luminescence, 3 h; percent of clofoctol response, vehicle zero;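 active means over half of replicate activation scores above 10%, or exactly half above 10 with the replicate mean above 10; inconclusive means replicate mean below 10 yet half the replicates above 10; inactive means over half of replicates below 10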;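 further: wells of about 30 µL received 50 nL stock; many hits fall short of the cut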
# LANA-H2A inh: blocks KSHV LANA binding to histone H2A/H2B; cell-free LANA-H2A/H2B peptide, fluorescence polarization; Q9QR71; hit rate 0.6% among 320,000; inhibition, % (no concentration beside the values); in the data active means inhibition mostly above about 10%, no sharp cut-off; inactive means mostly below about 6.7%;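 further: stock transfer was 7.5 nL into about 10 µL; 0% = median of vehicle wells and 100% = median of positive control wells; one replicate is shown; the record names a cut of 25% in any replicate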
# Ecoli rRNA inh: selective bacterial rRNA inhibition in E. coli | E. coli WT GFP vs humanized-ribosome RFP mutants, fluorescence, 24 h; active compounds read low; DMSO median 0, no signal -100 | GFP signal change (wild-type ribosome), % (concentration not given with the values) | hit rate 1.6% among 350,000 | AID 720706;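 active means significant combined selectivity score with lowered wild-type GFP, culture density cut under 30%, mutant RFP and density less affected; inactive means any of these conditions unmet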; further: one replicate is shown; some compounds called inactive have numbers as strong as hits
# T cruzi repl: blocks replication of Trypanosoma cruzi. inhibition, % (concentration not given with the values). AID 1885. hit rate 1.4% among 300,000. T. cruzi beta-gal in NIH3T3, luminescence, 90 h;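 active means mean inhibition across valid replicates above about 55%, limit read from the data; inconclusive means mean below that limit but half or more replicates reach it; inactive means mean below it, under half of replicates reach it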;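 further: signal also drops with host cell toxicity which is not excluded here; 0% = plate median of DMSO wells and 100% = zero luminescence signal; higher percent means less beta-gal luminescence so fewer parasites; stock transfer was 50 nL into about 50 µL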
# ALR inh: blocks human ALR sulfhydryl oxidase activity. hit rate 3.8% among 290,000. inhibition, % (test concentration not listed). AID 485317. P55789. purified ALR, DTT oxidation, H2O2 HRP-luminol luminescence;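 active means mean and each replicate at 75% or more; inconclusive means only one of the two met; inactive means neither met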;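 further: stock transfer was 7.5 nL into about 7.5 µL; 0% = neutral wells and 100% = wells with inactivated enzyme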
# Target sequence (P55789 whole entry, looked up): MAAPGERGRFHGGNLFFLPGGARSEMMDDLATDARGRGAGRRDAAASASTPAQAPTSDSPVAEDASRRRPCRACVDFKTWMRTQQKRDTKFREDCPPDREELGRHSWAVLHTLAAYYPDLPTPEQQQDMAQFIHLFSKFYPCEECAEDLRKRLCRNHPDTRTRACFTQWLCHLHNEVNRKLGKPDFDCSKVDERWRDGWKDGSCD
# Beta2AR agonist: activates human beta-2 adrenergic receptor causing internalization; hit rate 0.43% among 340,000; P07550; AID 504454; Am2.2-beta2AR cells, FAP receptor internalization, flow cytometry; reference of the scale not given here; response, % (concentration not given with the values);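 active means response above a set limit, near 3 SD of response in nonfluorescent compounds, cut at about 42% in these data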;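 further: stock transfer was 100 nL into about 11 µL; a reference agonist was the positive control; negative values mostly stem from fluorescent compounds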
# Target sequence (P07550 whole entry, looked up): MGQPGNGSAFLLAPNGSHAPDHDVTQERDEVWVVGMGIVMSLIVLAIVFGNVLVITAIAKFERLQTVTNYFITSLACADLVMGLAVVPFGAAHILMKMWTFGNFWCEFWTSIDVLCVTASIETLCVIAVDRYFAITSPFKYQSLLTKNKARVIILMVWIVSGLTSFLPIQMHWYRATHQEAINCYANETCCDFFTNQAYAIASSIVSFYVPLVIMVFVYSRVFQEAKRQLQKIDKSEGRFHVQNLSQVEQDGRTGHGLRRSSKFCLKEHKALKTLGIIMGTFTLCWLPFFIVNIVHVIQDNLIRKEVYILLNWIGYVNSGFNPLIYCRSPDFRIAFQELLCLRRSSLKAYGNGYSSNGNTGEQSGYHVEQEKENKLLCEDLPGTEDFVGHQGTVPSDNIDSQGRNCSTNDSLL
# Beta cell apopt: blocks beta cell apoptosis. INS-1E cytokine-induced death, ATP luminescence, 48 h; percent of positive-control rescue, neutral wells zero. protection from apoptosis, % (no concentration beside the values). hit rate 0.8% among 300,000. AID 435005;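 active means all replicates at 75% or more, or half of them and the mean; inconclusive means half reach 75% but not the mean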;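 further: 0% = cytokine-treated negative control wells and 100% = positive control rescue; higher means more ATP so stronger rescue from cytokine killing; wells of about 40 µL received 100 nL stock; the first replicate is given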
# Ecoli rRNA inh OD600: second read-out of Ecoli rRNA inh, no call of its own (marks repeat the call); OD600 change, %; measured here: OD600 growth;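 optical density of the mix in the first replicate; 0 = DMSO median and -100 = no signal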
# Ecoli rRNA inh RFP: further read-out of Ecoli rRNA inh, marked with its call; RFP signal change, %; measured here: RFP humanized mutant strains;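 first replicate; 0 = DMSO median and -100 = no signal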
# Numbers without * were called inactive; ? = inconclusive; . = no result given. These rows are one share of the data. The share of hits here may be higher or lower than overall.
SMILES,Calb FLC,A1 inh,LANA-H2A inh,Ecoli rRNA inh,Ecoli rRNA inh OD600,Ecoli rRNA inh RFP,T cruzi repl,ALR inh,Beta2AR agonist,Beta cell apopt
O=C(COc1cc(Cl)c(Cl)cc1Cl)NC(=O)Nc1ccc2c(c1)OCCO2,-4,-0.3,-6.0,.,.,.,-32,-11,-15,0
Cc1cccn2c(N)c(-c3ccccc3)nc12,0,-3.7,-4.0,.,.,.,3,27,7,-4
Cc1ccccc1NC(=O)COC(=O)c1cccc(S(=O)(=O)N2CCCCC2)c1,.,0.2,1.8,0,6,-1.4,.,-4,1,0
COc1ccc(C2=NS(=O)(=O)N(C)C(C(=O)Nc3ccc(F)cc3F)=C2)cc1,11,-0.1,-1.4,7,0,-1.7,-24,-6,-3,1
COc1ccc(OC)c(C(=O)c2coc3cc(Br)c(O)c(Br)c23)c1,70,-0.1,-2.3,-38,-51,-1.1,-14,-15,6,0
CCOC(=O)C1C(=O)C=C(c2ccc(C)cc2)CC1c1cccc([N+](=O)[O-])c1 (centres undefined),6,-0.4,2.0,0,-5,-6.3,16,.,-2,2
O=C(C(=O)N1CC=C(c2ccccc2)CC1)c1c[nH]c2ccccc12,-4,0.9,2.5,-32,-60,4.3,-12,-3,-1,-4
Cc1cc(S(=O)(=O)Nc2c(C)nc3nc[nH]n3c2=O)ccc1F,-12,0.2,0.0,3,1,1.4,-12,9,8,0
CCOC(=O)c1c(NC(=O)/C=C\C(=O)O)sc(C)c1-c1ccccc1,29,0.7,-1.1,-39,-52,-4.0,-14,-2,1,-12
COc1ccc(N(CC(=O)Nc2cccc([N+](=O)[O-])c2C)S(C)(=O)=O)cc1OC,4,0.1,-2.5,.,.,.,-1,-8,4,-2
CCCC(C)C(=O)Nc1ccc(S(N)(=O)=O)cc1 (centres undefined),-7,0.8,-3.1,5,2,-7.4,-15,-5,-3,.
CC1=C([N+](=O)[O-])C(c2ccccc2)NC(=O)N1 (centres undefined),-1,-0.1,-2.8,4,7,-2.9,-3,-1,2,.
COc1cccc(Nc2nnc(SCN3C(=O)c4ccccc4C3=O)s2)c1,5,1.6,0.5,8,18,2.4,4,-5,-8,-4
O=C(O)[C@@H]1CCCN1C(=O)c1ccco1,-16,1.5,1.6,-15,-9,6.1,-7,15,5,0
COc1ccc(NS(=O)(=O)c2cccc(C(=O)NN=Cc3cc(Br)c(O)c(Br)c3)c2)cc1,.,-0.5,-1.7,11,14,6.9,.,.,2,-7
C=CCn1c(SCC(=O)c2ccc(O)c(O)c2)nnc1-c1cccc(C)c1,.,0.5,5.8,-27*,-20*,-4.0*,.,70,3,4
CCS(=O)(=O)Nc1cc(OC)c(OC)cc1Cc1nccc2cc(OC)c(OC)cc12,9,0.2,3.3,3,8,-1.7,-3,-25,-4,-4
O=C(COc1ccc(S(=O)(=O)N2CCCCC2)cc1)N1CCCCCC1,-16,1.5,-2.0,.,.,.,5,-12,-5,-2
Cc1ccc(-c2nnn(CC(=O)NCCc3ccc4c(c3)OCO4)n2)o1,-1,0.4,2.1,.,.,.,5,-5,3,-3
CCC(=O)NC(=S)Nc1ccc(S(=O)(=O)NC2CCCCC2)cc1,20,-0.6,-0.9,-9,-9,-5.3,4,4,-5,.
O=C(N/N=C/C1CC2CCC1C2)C1CC1 (centres undefined),1,0.8,-3.0,17,15,1.8,-12,6,-5,2
COC(=O)C1SCC2C(=O)N(Cc3ccc(Cl)cc3)CC(=O)N21 (centres undefined),12,3.0,-7.1,11,12,4.2,0,-1,-1,-2
CCS(=O)(=O)N1Cc2ccccc2CC1C(=O)Nc1nc2ccc(F)cc2s1 (centres undefined),0,-0.6,-0.5,.,.,.,14,98*,-13,0
CC(=O)Nc1cccc(-c2csc(Nc3ccc(C)cn3)n2)c1,91*,-5.3,2.6,.,.,.,-10,99*,28,6
NC1=NC(=O)/C(=C/c2cn(CCC(=O)O)nc2-c2ccc(F)cc2)S1,1,0.1,-2.1,10,-2,-6.1,-9,.,-1,-10
# Later entries.
SMILES,Calb FLC,A1 inh,LANA-H2A inh,Ecoli rRNA inh,Ecoli rRNA inh OD600,Ecoli rRNA inh RFP,T cruzi repl,ALR inh,Beta2AR agonist,Beta cell apopt
CC1=[N+]([O-])C(C)(C)C(c2ccc(Br)cc2)=[N+]1[O-],-16,0.4,3.4,.,.,.,-7,14,-3,-2
O=C(NC1CCCC1)C(c1ccncc1)N(C(=O)c1csnn1)c1cccc(Cl)c1 (centres undefined),1,0.2,2.4,0,3,-1.1,-4,31,6,-2
Cc1cc(C(=O)CSc2ncccn2)c(C)n1-c1cccc(F)c1,14,0.9,3.7,.,.,.,11,-1,-10,-5
COc1ccc(S(=O)(=O)N2CCCCC2)cc1NC(=O)CN(C)C1CCCCC1,2,-0.9,-0.8,-12,-9,5.9,2,.,-4,7
CC(C)Cc1csc(NC(=O)c2ccccc2Cl)c1C(=O)O,1,-1.1,4.0,.,.,.,5,96*,0,-9
O=C(Nc1ccc2c(c1)OCCO2)C(=O)c1c[nH]c2ccccc12,-12,-7.0,-5.1,-1,-2,-2.2,-1,-1,4,19
CCCCc1nc(N)c(C#N)c(-c2ccco2)c1CCC,-4,0.5,-3.6,-7,-4,1.7,26,21,-3,-14
CCC1(C)CC(CCN(Cc2ccco2)C(C)=O)(c2ccccc2)CCO1 (centres undefined),5,-0.3,0.1,-5,-9,1.5,20,-24,-4,-4
Fc1cccc(CSc2nc3ncc(Cl)cc3[nH]2)c1,6,0.4,-4.4,.,.,.,1,-6,-12,.
CCN(CC)S(=O)(=O)c1cc(NC(=O)Cn2ncc(Cl)c(Cl)c2=O)ccc1C,-12,0.7,7.5,-26*,-5.5*,4.0*,?,0,46*,-15
O=C(OCc1cccc([N+](=O)[O-])c1)c1cccnc1,11,-0.6,-1.6,.,.,.,-9,-8,-11,0
c1ccc2c(c1)NC1(CCCCC1)n1c-2nc2ccccc21,-15,-2.3,-1.1,.,.,.,-1,16,-5,2
Fc1ccc(-c2ccnc3nc(-n4cccc4)nn23)cc1,6,-0.7,-1.1,.,.,.,-20,0,-24,-1
O=C(NCc1cccnc1)C1CC2c3ccccc3C1c1ccccc12 (centres undefined),-1,0.5,-3.3,.,.,.,-2,-5,7,.
O=C(COC(=O)Cc1ccc(Cl)cc1Cl)Nc1ccccc1OC(F)F,7,0.0,-2.2,.,.,.,-13,-5,-1,-6
Cc1cccc2sc(NC(=O)C3CCN(C(=O)c4ccco4)CC3)nc12,-2,0.5,0.4,3,-36,1.7,-9,-21,-1,-14
COC(=O)c1ccc(/C=C(/NC(=O)c2ccccc2)C(=O)N2CCOCC2)cc1,-7,0.8,-1.1,9,16,-0.8,-12,?,0,1
COc1ccc(C(=O)n2cnc3ccccc32)cc1,-2,-0.6,-0.6,10,5,4.4,11,26,5,-9
CC(=O)c1ccc(N2C(=O)CC(N3CCN(S(=O)(=O)c4ccc(C)c(C)c4)CC3)C2=O)cc1 (centres undefined),.,-0.9,0.9,4,7,-0.8,.,-12,-1,-3
O=C(C[n+]1cccc(CNC(=O)c2ccc(OC(F)F)cc2)c1)Nc1cccc(C(F)(F)F)c1,0,-0.7,-2.1,.,.,.,-10,-67,-8,.
CC(C)(C)N(NC(=O)Nc1ccc(Cl)c(Cl)c1)C(=O)c1ccccc1,4,-0.2,-8.0,.,.,.,23,5,22,24
COc1ccc(S(=O)(=O)N(C)C)cc1NS(=O)(=O)c1ccc(F)c(F)c1F,2,0.9,-0.1,.,.,.,-16,-2,-4,-7
CCN(CC)S(=O)(=O)c1ccc(C(=O)NCCc2cc3c(OC)ccc(OC)c3[nH]c2=O)cc1,-7,0.0,0.1,.,.,.,26,-16,-8,-1
Cc1cc(=O)n(C)c(=O)n1CCCNc1ccccc1,3,0.5,1.6,1,-4,1.0,15,?,1,-2
O=C(Cn1nc(Cc2cccnc2)c2ccccc2c1=O)Nc1cc(F)ccc1F,-9,0.7,-2.0,-3,-6,-2.1,4,.,-12,-5
# Later entries:
SMILES,Calb FLC,A1 inh,LANA-H2A inh,Ecoli rRNA inh,Ecoli rRNA inh OD600,Ecoli rRNA inh RFP,T cruzi repl,ALR inh,Beta2AR agonist,Beta cell apopt
CCOc1ccc(N2C(=O)CC(NC3CCN(C(=O)c4cccs4)CC3)C2=O)cc1 (centres undefined),0,-0.6,-0.8,7,10,-2.1,-9,-10,1,-1
CCOC(=O)C(C(=O)Nc1cccc(C)c1)C1CCCCC1 (centres undefined),-9,0.5,2.0,.,.,.,-2,1,-1,-2
COC1=C(Nc2ccc(C)cc2)C(=O)c2ccccc2C1=O,-3,-0.3,2.3,-11,-23,-18,-7,34,2,11
CCCOc1ccc(N/C=C/C(=O)C(C)(C)C)cc1,16,-1.1,1.2,7,5,-2.1,24,-7,10,-1
CCN(CC)S(=O)(=O)c1ccc(N2C(=O)Nc3ccccc3N2O)cc1,-3,-0.2,0.5,.,.,.,14,-7,-3,-2
Cc1ccc(CN2CC(C(=O)NCCC3=CCCCC3)CC2=O)cc1 (centres undefined),.,-1.6,-1.1,-18,-31,-5.8,.,-7,0,-4
Cc1ccc(Nc2nc(=O)[nH]nc2C)cc1,4,0.4,2.1,.,.,.,-19,0,-1,2
Cc1ccc(S(=O)(=O)NCCN(CCNS(=O)(=O)c2ccc(C)cc2)S(C)(=O)=O)cc1,-3,-0.7,-0.6,.,.,.,6,5,-2,-8
COc1ccc(S(=O)(=O)N2CCCCC2)cc1N(C)S(=O)(=O)c1ccccc1,3,-1.8,-5.4,-12,-23,-1.4,5,2,-1,-1
COc1ccccc1NC(=O)CN(Cc1ccco1)C(=O)c1cncc(Br)c1,0,0.4,0.7,-12,-8,-5.1,1,-8,-6,5
COC(=O)N/N=C(\C)c1ccc(C)c([N+](=O)[O-])c1,-4,-6.3,2.6,.,.,.,6,21,-17,-4
CCCCCCOc1ccc(N2C(=O)CC(N3CCN(C(=O)c4ccco4)CC3)C2=O)cc1 (centres undefined),17,0.6,7.8,1,-2,-0.5,-5,-8,-5,5
Cc1nn(C(=O)CCC(=O)NCc2ccccc2Cl)c2ccccc12,-1,.,.,0,-15,0.4,-6,5,-3,.
CC(C)(C)c1ccc(/C=C2\SC(=O)N(CCNC(=O)c3cccc(S(=O)(=O)N4CCOCC4)c3)C2=O)cc1,1,-7.1,-0.6,.,.,.,21,22,6,.
CCCCCCCCn1c2c(c(=N)c3ccccc31)CCC2,?,.,.,-59,-81,-20,60*,.,8,.
CCOC(=O)C1=C(C)N(CCCC(=O)O)C(=O)NC1c1ccc(Cl)cc1Cl (centres undefined),0,0.8,-7.6,9,17,0.9,-4,.,-7,-2
C/C(=N\NC(=O)c1nc2ccccn2c1C)c1ccco1,-8,-7.2,1.0,20,19,0.9,-4,2,-4,6
C#CCOc1c(Br)cc(/C=C2/C(=O)ON=C2C)cc1OCC,-9,-0.1,7.2,2,5,-3.2,-10,.,2,.
Cc1nnc(NC(=O)CCC(=O)N2CCN(S(=O)(=O)c3cc([N+](=O)[O-])ccc3C)CC2)s1,.,0.5,-1.3,10,13,7.4,.,-4,-10,2
